# Screening results deposited in PubChem BioAssay by National Center for Advancing Translational Sciences (NCATS).
# RE007 growth inh: less growth of the S. pombe RE007 Vpr strain | S. pombe RE007 Vpr strain, BacTiter-Glo ATP luminescence, 24 h; control for the full effect not named in the record | Potency, µM (doses to about 92.2 µM), inactives show at the top dose activity change, negative = less growth | hit rate 0.21% among 360,000 | AID 651644; active = well fitted falling curve with a large enough effect; inconclusive = small, poorly fitted or top-dose-only effect; inactive = no such curve, though single readings can be large or run the other way;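 also: % is scaled to controls: 0 for no effect and ±100 for the full control effect; nearly all actives have a fitted effect of over 50% in size; the assay follows cell death caused by Vpr and the record does not say whether a fall means rescue or toxicity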
#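 Fission yeast RE007 carrying one integrated HIV-1 vpr copy, seeded at OD 0.01 in PMG+AL medium with 23 nL pinned compound. Grown 24 h at 30 degrees; viability read by BacTiter-Glo luminescence after 5 min.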
# Cruzain Triton: cruzain (T. cruzi) inhibition with detergent; hit rate 0.43% among 200,000; Potency, µM, inactives show max response, negative = inhibition, actives largely listed as inhibitors; AID 1478; purified cruzain, Z-FR-AMC fluorescence, 0.01% Triton;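 also: plate controls were neutral wells for no effect and buffer without enzyme for full effect; nearly all actives have a fitted effect of over 40% in size; top concentration of the series not given in the record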
# Target sequence (P25779 123-467 limits assumed): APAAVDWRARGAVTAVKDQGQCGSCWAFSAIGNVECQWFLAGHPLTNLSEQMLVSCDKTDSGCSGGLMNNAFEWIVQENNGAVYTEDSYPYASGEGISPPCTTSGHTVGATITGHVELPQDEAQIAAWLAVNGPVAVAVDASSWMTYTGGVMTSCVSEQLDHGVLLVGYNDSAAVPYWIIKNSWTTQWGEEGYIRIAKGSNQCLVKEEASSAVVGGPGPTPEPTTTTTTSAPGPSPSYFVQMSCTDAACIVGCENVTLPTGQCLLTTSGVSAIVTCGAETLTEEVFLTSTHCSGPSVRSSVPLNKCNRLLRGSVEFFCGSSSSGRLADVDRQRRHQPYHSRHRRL
#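 15 min RT preincubation of 1.5 nM cruzain with compound, then 2 uM Z-FR-AMC added; kinetic AMC fluorescence, 60 s delta. Triton X-100 0.01%, pH 5.5.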
# LASV entry inh: Lassa virus entry inhibition | Lassa virus pseudotype entry inhibition, cell reporter; control for the full effect not named in the record | Potency, µM (series often up to 37.9 µM), for inactives: at the highest dose activity change, negative = inhibition, most hits filed as inhibitors | hit rate 1.2% among 300,000 | AID 540256; active means well fitted inhibition curve with a large enough effect; inconclusive means small, poorly fitted or top-dose-only effect, or effect the other way; inactive means flat fitted curve, though single readings scatter; tested in HEK293 cells; also: % is scaled to controls: 0 for no effect and ±100 for the full control effect; nearly all actives have a fitted effect of over 50% in size; luciferase read-out
# NS1 function inh: inhibitors of influenza NS1 protein function | S. cerevisiae slowed by influenza A NS1, growth recovery by OD600 | AID 2326 | Potency, µM (top dose mostly 46.1 µM), for inactives: at the highest dose activity, positive = more growth | hit rate 0.4% among 270,000; active means well fitted rising curve with a large enough effect; inconclusive means small, poorly fitted or top-dose-only effect; inactive means no such curve, though single readings can be large or run the other way; also: nearly all actives have a fitted effect of over 50% in size
#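 OD600 was taken as the measure of yeast growth restored by compound in an NS1-expressing S. cerevisiae strain. Cells had been washed out of glucose medium and diluted 1:100 into galactose -URA medium, pH 6.0.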
# Marburg entry inh: blocks Marburg virus binding to or entry into cells; Marburg virus pseudotyped entry inhibition, cell reporter; control for the full effect not named in the record; about a third of the inactives were read at about 46 µM; Potency, µM (series often up to 37.8 µM), without a hit: top-dose activity change, negative = inhibition, usual class: inhibitors; hit rate 1.8% among 300,000; AID 540276; active = well fitted inhibition curve with a large enough effect; inconclusive = small, poorly fitted or top-dose-only effect, or effect the other way; inactive = flat fitted curve, though single readings scatter; tested in HEK293 cells; about a fifth of its hits are not listed in these tables; also: % is scaled to controls: 0 for no effect and ±100 for the full control effect; luciferase read-out
# Cruzain noTriton: inhibitors of Trypanosoma cruzi cruzain without detergent; P25779; purified cruzain, Z-FR-AMC fluorescence, no detergent; Potency, µM, inactives show max response, negative = inhibition, usual class: inhibitors; hit rate 2.3% among 200,000;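 also: plate controls were enzyme without inhibitor for no effect and buffer without enzyme for full effect; nearly all actives have a fitted effect of over 40% in size; top concentration of the series not given in the record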
#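 Detergent-free condition (0.00005% Triton X-100) in acetate buffer pH 5.5 with DTT. 1.5 nM enzyme and compound were pre-mixed 15 min, then 2 uM Z-FR-AMC substrate added; reaction progress from fluorescence change between first and third reads (60 s).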
# StopGo reporter: lowers the luciferase signal of an FMDV 2A StopGo reporter. human cells with a luciferase reporter of 2A StopGo recoding; control for the full effect not named in the record. Potency, µM (highest dose often 57.9 µM), for the others: top-dose signal change, negative = less light. hit rate 1.2% among 410,000. AID 1159524; active = well fitted falling curve with a large enough effect; inconclusive = small, poorly fitted or top-dose-only effect; inactive = no such curve, though single readings can be large or run the other way; tested in HEK293T cells; also: % is scaled to controls: 0 for no effect and ±100 for the full control effect; nearly all actives have a fitted effect of over 45% in size; luciferase light after 4 h
# SARS PLP yeast: SARS-CoV PLP inhibition in yeast; S. cerevisiae expressing SARS-CoV PLpro, growth rescue; control for the full effect not named in the record; Potency, µM (series often up to 32.9 µM), for inactives: at the top dose activity, positive = growth rescue; hit rate 0.19% among 330,000; AID 485353; active means well fitted rising curve with a large enough effect; inconclusive means small, poorly fitted or top-dose-only effect; inactive means no such curve, though single readings can be large or run the other way; also: 0% is about no effect; nearly all actives have a fitted effect of over 55% in size; growth read by luminescence after 48 h
# * = called active by the depositor; ? = inconclusive; nt = no result given; [ ] = dose if it differs, or a comment. Unless noted, calls follow the shape of the dose curve; as a rule, active = well fitted curve in the direction sought with a large enough effect; inconclusive = small, poorly fitted or top-dose-only effect, or another doubt; inactive = no such curve, though single readings can be large; an effect the other way counts as inactive or inconclusive. Potency is read from the fitted curve at half-maximal effect. An unsorted share of the library; about 4.7% have a hit in one of these screens.
SMILES,RE007 growth inh,Cruzain Triton,LASV entry inh,NS1 function inh,Marburg entry inh,Cruzain noTriton,StopGo reporter,SARS PLP yeast
CC(C)c1ccc(NC(=S)NC2CCN(Cc3ccccc3)CC2)cc1,5%,-0.4%,18µM*,-3%,?,3%,-7%,-10%
COc1ccc(N=C2O/C(=C/c3sc(=S)n(CC4CCCO4)c3O)N=C2C#N)cc1 (configuration not stated),18%,nt,22%[46.1 µM],0%,?,nt,-13%,0%
CCP(=O)(c1cccc([N+](=O)[O-])c1)c1cccc([N+](=O)[O-])c1,-1%,nt,5%,2%,?,nt,-6%,0%
CCOc1ccc(-c2cn3c(n2)sc2cc(C(=O)NCCCN4CCCCC4)ccc23)cc1,nt,-1.6%,-3%[46.1 µM],nt,nt,4µM*,12%,nt
O=C(NCCNCc1cccc(Cl)c1)c1ccco1,3%,nt,-11%,nt,7%[46.1 µM],nt,6%,nt
CCOP(=S)(OCC)SCCSCC,-11%,-4.7%,nt,nt,nt,-2%,-14%,-1%
CCOC(=O)c1c(NC(=O)CSc2nnnn2-c2ccc(OC)cc2)sc(C)c1C,-21%,-3.6%,7%,-2%,-17%,-5%,-24%,-10%
Cc1noc(C)c1C(=O)OCC(=O)Nc1cc(Cl)ccc1Oc1ccccc1,-9%,-2.4%,-18%,-3%,-24%,12%,-14%,-19%
Clc1ccccc1CSc1nnc(-c2ccccn2)n1Cc1ccco1,18%,-8.2%,-6%,-40%,?,4%,-3%,-9%
O=C(NCCc1ccccn1)c1cncc(Br)c1,13%,nt,?,5%,?,nt,44%[activator],1%
CCCc1cc(N2CCCC2)n2nc(C)c(-c3ccccc3)c2n1,-30%,-7.5%,-27%,-11%,-29%,0%,-7%,?
CCN(CC)C(=O)COC(=O)c1ccc(O)cc1,24%,11%,17%,-3%,?,9%,27%,nt
C=CCn1c(SCC(=O)Nc2ccc3c(c2)OCO3)nnc1-c1ccccc1,4%,-3.4%,-1%,-9%,-1%,7%,-13%,?
COc1ccc(O[C@H]2C=C[C@@H](c3ccccc3)O[C@@H]2COC(=O)CC/C(C)=N/O[C@@H](C)CN2CCCCc3nc(C)c(C)cc32)cc1,nt,-1.8%,?,-13%,-18%,-3%,nt,-5%
O=C(/C=C/c1ccc(-c2ccccc2[N+](=O)[O-])o1)c1ccc(Br)cc1,-14%,-5.3%,12%,-7%,4%,?,?,11%

# Brought forward from above: 2 entries; new compounds follow.
SMILES,RE007 growth inh,Cruzain Triton,LASV entry inh,NS1 function inh,Marburg entry inh,Cruzain noTriton,StopGo reporter,SARS PLP yeast
COc1ccc(O[C@H]2C=C[C@@H](c3ccccc3)O[C@@H]2COC(=O)CC/C(C)=N/O[C@@H](C)CN2CCCCc3nc(C)c(C)cc32)cc1,nt,-1.8%,?,-13%,-18%,-3%,nt,-5%
O=C(/C=C/c1ccc(-c2ccccc2[N+](=O)[O-])o1)c1ccc(Br)cc1,-14%,-5.3%,12%,-7%,4%,?,?,11%
Cc1c(CCOC(=O)C23CC4CC(CC(C)(C4)C2)C3)sc[n+]1Cc1ccccc1,20%,1.7%,?,1%,?,3%,16µM*,-18%
Cc1ccc(-c2nnc(Nc3ccc(Br)cc3)c3ccccc23)cc1S(=O)(=O)N1CCN(C)CC1,nt,-4.9%,11µM*,nt,nt,-9%,-16%,nt
NC(=O)C1CCN(Cc2nc(-c3ccccc3)no2)CC1,-5%,-2.7%,2%,12%,12%,9%,0%,8%
COC(=O)c1c(NC(=O)c2cc(=O)c3cc(C)cc(C)c3o2)sc2c1CCC2,nt,-1.3%,4%[46.1 µM],nt,4%[46.1 µM],-6%,-6%,nt
O=C1N/C(=N/O)S/C1=C\c1ccccc1-n1cccn1,-3%,nt,5%,nt,24%[46.1 µM],nt,4%,7%
CCCCC(O)(c1ccc(OC)cc1)C(CN1CCOCC1)c1ccccc1 (configuration not stated),2%,nt,-20%[46.1 µM],3%,?,nt,-20%,-2%
CCN(CC)CCCN=Cc1c(O)n(-c2c(C)cccc2C)c(=O)c2ccccc12,-15%,nt,nt,1%,nt,nt,2%,2%
O=C(Nc1nnc(SCc2c(Cl)cccc2Cl)s1)C1CC(=O)N(c2ccc3c(c2)OCCO3)C1 (configuration not stated),5%,nt,4%[46.1 µM],6%,-2%[46.1 µM],nt,?,-1%
COc1ccc([C@H]2CC(=O)c3c(O)cc(O)cc3O2)cc1O,2%,nt,?,2%,?,nt,23%,0%
O=C(O)c1ccc(CNC(=O)c2ccc3c(c2)OCCO3)cc1,15%,nt,12%,5%,2%[46.1 µM],nt,-1%,-9%
N#Cc1nc(-c2ccco2)oc1NCCCn1ccnc1,4%,-8.0%,-11%,-5%,22%,-6%,7%,-3%
S=c1nn[nH]n1C12CC3CC(CC(C3)C1)C2,22%,2.2%,1%,-107%,24%,-2%,nt,6%
CCN(CC)C(=O)Cn1cc(S(=O)(=O)CC(=O)N2CC(C)OC(C)C2)c2ccccc21 (configuration not stated),7%,nt,0%,nt,?,nt,-11%,nt
Cc1cc(C)c(NC(=O)C[C@H](CC(=O)O)c2cccc3ccccc23)c(C(=O)N2CCC3(CCCC3)CC2)c1,nt,-10%,nt,10µM*,?,?,nt,nt
Cc1cccn2cc(COc3ccc(-c4ccccc4)cc3)nc12,?,nt,?,nt,?,nt,5%,-28%
Cc1ccn2cc(-c3cccc(NC(=O)CCC(=O)O)c3)nc2c1,-27%,nt,nt,12%,nt,nt,15%,-11%
COc1ccc(/C=C(/NC(=O)c2ccccc2)C(=O)NCc2ccco2)cc1,-22%,nt,-20%[46.1 µM],0%,2%[46.1 µM],nt,8%,-2%
CCCSC1=NC2(CCN(C(=O)NC3CCCCC3)CC2)N=C1c1ccc(Cl)cc1,nt,0.1%,-3%[46.1 µM],nt,nt,-1%,-4%,nt
CCOC(=O)C1(Cc2ccc(OC)cc2)CCN(C(=O)c2cccc3nccnc23)CC1,-10%,nt,nt,-10%,nt,nt,-6%,1%
CC1CN(C(=S)Nc2ccccc2)CC(C)O1 (configuration not stated),2%,nt,nt,-5%,nt,nt,12%,0%
Cc1ccc(CCNS(=O)(=O)c2cc3c(cc2C)NC(=O)CO3)cc1,2%,nt,nt,-7%,nt,nt,32%[activator],1%
Cc1ccc(NC(=O)CSc2nc(N)cc(=O)[nH]2)cc1S(=O)(=O)N1CCOCC1,5%,nt,0%,-5%,?,nt,20%,0%
CCOc1ccc(NC(=O)CCn2cccn2)cc1,nt,1.8%,7%[46.1 µM],nt,nt,-7%,31%[activator],nt
CCOC(=O)N1CCN(C(=O)CCN2C(=O)COc3ccccc32)CC1,-10%,5.3%,8%,1%,13%,-1%,11%,0%
COc1ccc(-n2nc3c(N)n[nH]c3cc2=O)cc1,5%,nt,-15%[46.1 µM],5%,-18%[46.1 µM],nt,14%,-1%
COc1ccc(CC(=O)NC2CCCc3ccccc32)cc1 (configuration not stated),5%,nt,nt,nt,-10%[46.1 µM],nt,8%,0%
COc1ccc(-c2nn(CCC#N)cc2C(=O)Nc2ccccc2)cc1OC,5%,nt,nt,16%,nt,nt,-4%,1%
CCOc1ccc(NC(=O)[C@@H]2CCCN2C(=O)c2cccs2)cc1S(=O)(=O)N1CCCCC1,2%,nt,7%,nt,5%,nt,22%,17%
O=C(OCC(=O)N1CCN(C(=O)c2ccco2)CC1)c1cc(-c2ccco2)nc2ccccc12,2%,-12%,5%,22%,?,?,-13%,-8%
COc1cc(NS(=O)(=O)c2ccc(NC(=O)CN3C(=O)c4ccccc4C3=O)cc2)nc(OC)n1,13%,nt,1%,nt,-11%,nt,19%,-2%
CN1CCc2cc(NC(=O)Nc3cccnc3)ccc21,nt,-3.8%,?,25µM*,?,-2%,nt,nt
Cc1cccc(C2c3[nH]c4ccccc4c3CCN2C(=O)c2nn(C)c(=O)c3ccccc23)n1 (configuration not stated),8%,nt,11µM*,11%,?,nt,?,0%
CN(Cc1cn(C)nc1-c1cccc(Cl)c1)Cc1nccn1C,8%,nt,nt,0%,9%,nt,-19%,0%
COc1ccccc1-c1noc(-c2cccs2)n1,-4%,3.2%,-1%,4%,3%,-17%,41%[activator],3%
Clc1cccc(Cl)c1C1N2CCCN12 (configuration not stated),15%,1.9%,-4%,-6%,8%[46.1 µM],4%,-18%,19%
NC(=S)N/N=C\c1ccc(-c2cccc(Cl)c2Cl)o1,-20%,0.63µM*,11%,1%,?,0.63µM*,4%,?
COc1ccc(CC(=O)OCC(=O)c2ccc(OC)cc2)cc1,-17%,-14%,-7%,-10%,10%,-19%,3%,-1%
CN(C(=O)c1ccco1)c1nc(-c2ccccc2)cs1,-23%,nt,nt,-6%,nt,nt,-2%,-14%
O=C(CCN1CCCCC1)NCC(=O)Nc1ccc(Br)cc1C(=O)c1ccccc1,8%,0.1%,-23%,0%,?,-4%,-11%,1%
CC(NC(=O)Nc1ccccc1C(F)(F)F)c1c(-n2cccc2)sc2c1CCCC2 (configuration not stated),nt,-2.8%,5%[46.1 µM],nt,-23%[46.1 µM],28%,-15%,nt
O=C(/C=C/c1ccc(Cl)cc1)Nc1ccc(CN2CCOCC2)cc1,-13%,-6.6%,-24%[46.1 µM],1%,?,-3%,?,26%
COc1ccc(-n2ccnc2)cc1,-16%,nt,nt,3%,nt,nt,2%,-2%
Cc1ccc(-n2ncc(C(=O)N3CCN(c4ncccn4)CC3)c2C2CCN(C(=O)OC(C)(C)C)CC2)cc1,nt,-0.8%,-1%[46.1 µM],nt,nt,-7%,-7%,nt
